Screening results: PubChem, National Center for Advancing Translational Sciences (NCATS)
VDR inh = vitamin D3 receptor (human) inhibition; VDR-SRC2-3 peptide fluorescence polarization, 2 h; AID 504847; 400,000 compounds, 0.93% hits; P11473; Potency, µM, for inactives: max response, negative = inhibition, most hits filed as inhibitors; active = well fitted inhibition curve with a large enough effect; inconclusive = small, poorly fitted or top-dose-only effect, or another doubt; inactive = no such curve, though single readings can be large or run the other way; also: series mostly up to about 120 µM
Target sequence (P11473 whole entry, looked up): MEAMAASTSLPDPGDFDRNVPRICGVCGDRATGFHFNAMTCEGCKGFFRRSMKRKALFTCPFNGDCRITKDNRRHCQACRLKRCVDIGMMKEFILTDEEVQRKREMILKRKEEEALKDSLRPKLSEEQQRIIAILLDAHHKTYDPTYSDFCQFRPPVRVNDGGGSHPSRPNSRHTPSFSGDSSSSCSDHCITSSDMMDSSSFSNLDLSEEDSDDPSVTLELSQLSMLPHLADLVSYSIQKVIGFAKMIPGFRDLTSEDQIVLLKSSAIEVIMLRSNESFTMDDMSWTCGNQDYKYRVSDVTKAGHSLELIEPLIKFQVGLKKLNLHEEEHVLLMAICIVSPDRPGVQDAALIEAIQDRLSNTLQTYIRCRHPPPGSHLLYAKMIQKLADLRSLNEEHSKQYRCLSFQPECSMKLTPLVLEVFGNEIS
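After 23 nl compound addition and a short centrifugation, plates sat for 2 hours at ambient temperature; polarization of fluorescence then indicated loss of VDR binding to peptide SRC2-3.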
An asterisk follows results filed as active; ? = inconclusive. % is scaled to controls: 0 for no effect and ±100 for the full control effect; potency is read from the fitted curve at half-maximal effect. Only part of the results is shown (hit frequency here may not be typical).

VDR inh,SMILES
-13%,C[C@@H]1NC(=O)c2cc([N+](=O)[O-])cc(I)c2OCC[C@@H](C(=O)NC(CC(=O)O)C(N)=O)NC(=O)[C@H](CCC(=O)O)NC1=O (stereo partly drawn)
2%,CCn1c(=O)c(C(=O)Nc2ccccc2C)c(O)c2ccccc21
3%,O=c1cc(CN2CCN(c3ccccc3)CC2)c2cc(O)c(-c3ccccc3)cc2o1
18%,Cn1c(=O)c2c(nc(Br)n2CCSc2ncccn2)n(C)c1=O
-13%,C=CCNCCCCOc1ccccc1-c1ccccc1
-2%,c1ccc2c(c1)nc(N1CCOCC1)c1c3ccccc3[nH]c21
4%,COc1ccc(C2CC(=O)N(c3ccccc3)C3=C2C(=O)CCC3)cc1 (stereo not drawn)
-8%,Cc1cccc(NC(=O)c2cc3c(C)nn(-c4ccccc4)c3s2)c1
-6%,O=C(CN1Cc2ccccc2C1=O)Nc1cc(F)ccc1F
-19%,Cc1ccc(OCC(=O)NCc2ccco2)cc1C
-6%,Cn1cccc1C(=O)NNC(=O)COc1ccccc1Cl
4%,COc1ccc(NC(=O)CCNS(=O)(=O)c2ccc3c(c2)CCN3C(=O)C2CC2)cc1Cl
4%,CN1CCN(c2nc(-c3cccs3)cs2)CC1
-13%,CCN(CC(=O)Nc1c(F)cccc1F)C(=O)c1cc(S(=O)(=O)NCc2ccccc2)ccc1C
-10%,COc1ccc(-c2nc3c(c4nnc(SC(C)C(=O)Nc5ccccc5)n24)COC(C)(C)C3)cc1 (stereo not drawn)
-12%,CCOC(=O)c1c(NC(=O)CSc2ncnc3[nH]ncc23)sc2c1CCC(C)C2 (stereo not drawn)
-13%,CC1=C(C(=O)OCc2ccccc2)C(c2ccccc2OS(=O)(=O)c2ccc(C)cc2)NC(=O)N1CCCC(=O)O (stereo not drawn)
-2%,Cc1nc(Nc2ccc3c(c2)OCCO3)c2nnn(Cc3ccccc3Cl)c2n1
14%,CCc1cccc2c(C(=O)C(NC(C)CC)c3ccccc3)c[nH]c12 (stereo not drawn)
-2%,CC(=O)Nc1ccc(NC(=O)C(NS(=O)(=O)c2ccc(Br)s2)c2ccccc2)cc1 (stereo not drawn)
-4%,Cc1nc(C)c(-c2csc(Nc3cccnc3)n2)s1
15%,COc1ccc(S(=O)(=O)c2cn(C)c3cc(N4CCCCC4)c(F)cc3c2=O)cc1
15%,CC(=O)NC1CC2CCC(C1)N2Cc1ccc(C)cc1 (stereo not drawn)
-18%,COc1ccc(OC)c(NC(=S)NCC(c2cccnc2)N2CCOCC2)c1 (stereo not drawn)
2%,O=C(CN1C(=O)NC2(CCCC2)C1=O)N1CCN(S(=O)(=O)c2cccc(F)c2)CC1
-19%,Cc1ccc(CCc2nnc(SCC(=O)Nc3cccc(Cl)c3)n2-c2ccccc2)o1
-7%,O=C(NC(=S)NNC(=O)c1ccc(Cl)cc1Cl)c1cccnc1
22%,NC(=O)C1CC12c1ccccc1-c1ccccc12 (stereo not drawn)
-12%,O=S(=O)(CC(O)(c1ccccc1)c1ccccc1)CC(O)(c1ccccc1)c1ccccc1
?,COc1ccc(Nc2nc(CC(C)=O)ns2)cc1OC
6%,COc1ccc(C(=O)N/N=C/c2ccc3cccc(O)c3n2)cc1
27%,CCc1cc(CNC(=O)CC2C(=O)NCCN2Cc2ccccc2C(F)(F)F)on1 (stereo not drawn)
1%,O=C(COC(=O)c1ccc(Cl)nc1)NCCc1ccc(F)cc1
-4%,O=C(CN1C(=O)NC2(CCc3ccccc32)C1=O)Nc1ccccc1C(F)(F)F (stereo not drawn)
-7%,Cc1ccc(S(=O)(=O)N2CCN(C(=O)CC(C)n3nc(C)c(Cl)c3C)CC2)cc1 (stereo not drawn)
2%,COc1ccc(N2CCN(C(=O)c3cccn3-c3nnc(N4CCCC4)s3)CC2)cc1
-16%,CCn1c(SCC(=O)NC2CCCC2)nnc1C(C)NC(=O)c1ccccc1Br (stereo not drawn)
-8%,COc1ccc(C(=O)CN2CCN(c3ncccn3)CC2)cc1
-13%,C=CC[C@@H](CC(=O)N(CCO)Cc1ccccc1)C(=O)N[C@H](COC(=O)[C@@H](CC=C)Cc1ccc(F)cc1)Cc1ccccc1
-7%,COc1ccc(OC)c(-c2csc(NC(=O)C3=COCCO3)n2)c1
7%,Cc1cccc(C(=O)NCC(=O)OCC(=O)c2ccc(Cl)s2)c1
-12%,COC(=O)CCC(=O)OC1(C)C(=O)C=C2C=C(C3CC3)N(CCCCO)C=C2C1=O (stereo not drawn)
-6%,Cc1ccc(S(=O)(=O)NCC(=O)OCC(=O)NC2CCCCC2)cc1
-14%,O=C(c1ccc([N+](=O)[O-])o1)N1CCN(c2nc3ccc(F)cc3s2)CC1
-2%,COc1ccccc1C1/C(=C(/O)c2ccccc2)C(=O)C(=O)N1CC(C)C (stereo not drawn)
-28%,CC1CCc2cc(F)ccc2N1C(=O)c1ccncc1 (stereo not drawn)
-9%,COc1cc(NC(=O)COC(=O)CSc2ccccc2F)c(C)cc1[N+](=O)[O-]
6%,Cc1ccc(NC(=O)C(=O)NCC2CCCN2S(=O)(=O)c2cccs2)cc1C (stereo not drawn)
8%,CC(C)c1cc(C(=O)OCC(=O)NC(=O)NCc2ccco2)c(O)c(C(C)C)c1
-20%,CCCc1nnc(NC(=O)CC(C)c2ccccc2)s1 (stereo not drawn)
3%,Cc1ccc(N=N/C(=C\O)C(=O)c2ccc(Cl)cc2)cc1
0%,O=C(NCC(c1ccc(Cl)cc1)N1CCCCC1)c1ccccc1F (stereo not drawn)
-6%,CCC(=O)N1C(C(=O)N2CCCC2)CSC1c1ccc(OC)cc1 (stereo not drawn)
12%,CCOc1ccc(NC(=O)CN(C)C(=O)c2cn(-c3ccc(F)cc3)nc2-c2cccc(OC)c2)cc1OCC
2%,COc1cccc(/C=C2\SC(=S)NC2=O)c1OS(=O)(=O)c1ccc(NC(C)=O)cc1
15%,Cc1cc(C)cc(NC(=O)COCc2cc(-c3ccc4c(c3)OCO4)on2)c1

(listing goes on)
VDR inh,SMILES
-17%,COc1ccccc1C(=O)C1CCCN(C(=O)CSc2ccccn2)C1 (stereo not drawn)
13%,O=C(O)c1ccccc1OCCOCCOc1ccccc1C(=O)O
3.2µM*,Cc1ccc(C2=NN=C(NC(=O)CSc3nncn3C)SC2)cc1
-21%,CC1CC(C)CN(C(=O)/C=C/c2ccc([N+](=O)[O-])s2)C1 (stereo not drawn)
3%,O=C(COC(=O)c1ccc(NS(=O)(=O)c2cccs2)cc1O)Nc1ccc(F)cc1
-6%,Cn1c(=O)c2c(nc(NCCNC(=O)c3ccco3)n2Cc2ccc(F)cc2)n(C)c1=O
11%,CCn1c(CNC(=O)c2cccs2)nnc1SCC(=O)NCCc1ccccc1
2%,Cc1ccc(N(C(=O)c2csnn2)C(C(=O)NC(C)(C)C)c2ccccn2)cc1 (stereo not drawn)

Shown with bars between the fields: part of the list above.
SMILES | VDR inh
COc1ccccc1C1/C(=C(/O)c2ccccc2)C(=O)C(=O)N1CC(C)C (stereo not drawn) | -2%
CC1CCc2cc(F)ccc2N1C(=O)c1ccncc1 (stereo not drawn) | -28%
COc1cc(NC(=O)COC(=O)CSc2ccccc2F)c(C)cc1[N+](=O)[O-] | -9%
Cc1ccc(NC(=O)C(=O)NCC2CCCN2S(=O)(=O)c2cccs2)cc1C (stereo not drawn) | 6%
CC(C)c1cc(C(=O)OCC(=O)NC(=O)NCc2ccco2)c(O)c(C(C)C)c1 | 8%
CCCc1nnc(NC(=O)CC(C)c2ccccc2)s1 (stereo not drawn) | -20%
Cc1ccc(N=N/C(=C\O)C(=O)c2ccc(Cl)cc2)cc1 | 3%
O=C(NCC(c1ccc(Cl)cc1)N1CCCCC1)c1ccccc1F (stereo not drawn) | 0%
CCC(=O)N1C(C(=O)N2CCCC2)CSC1c1ccc(OC)cc1 (stereo not drawn) | -6%
CCOc1ccc(NC(=O)CN(C)C(=O)c2cn(-c3ccc(F)cc3)nc2-c2cccc(OC)c2)cc1OCC | 12%
COc1cccc(/C=C2\SC(=S)NC2=O)c1OS(=O)(=O)c1ccc(NC(C)=O)cc1 | 2%
Cc1cc(C)cc(NC(=O)COCc2cc(-c3ccc4c(c3)OCO4)on2)c1 | 15%
COc1ccccc1C(=O)C1CCCN(C(=O)CSc2ccccn2)C1 (stereo not drawn) | -17%
O=C(O)c1ccccc1OCCOCCOc1ccccc1C(=O)O | 13%
Cc1ccc(C2=NN=C(NC(=O)CSc3nncn3C)SC2)cc1 | 3.2µM*
CC1CC(C)CN(C(=O)/C=C/c2ccc([N+](=O)[O-])s2)C1 (stereo not drawn) | -21%
O=C(COC(=O)c1ccc(NS(=O)(=O)c2cccs2)cc1O)Nc1ccc(F)cc1 | 3%
Cn1c(=O)c2c(nc(NCCNC(=O)c3ccco3)n2Cc2ccc(F)cc2)n(C)c1=O | -6%

(cont.)
VDR inh,SMILES
-2%,COc1ccc(Cl)cc1NC(=S)N1CCN(S(C)(=O)=O)CC1
9%,COc1ccccc1/C=N/n1c(C)nnc1-n1nc(C)cc1C
12%,O=C(O)CN1C(=O)SC(Nc2ccc(C(=O)O)cc2)C1=O (stereo not drawn)
-3%,O=C1c2ccccc2C(=O)c2cc(S(=O)(=O)Nc3ccccc3)ccc21
5%,Cc1ccc(NC(=O)CCC(=O)NNC(=O)c2ccccc2[N+](=O)[O-])c(C)c1
-4%,CC(=O)c1c(O)ccc2c(-c3ccccc3)cc(=O)oc12
-5%,COC(=O)Cn1c(=NC(=O)c2sc3ccccc3c2Cl)sc2cc(S(N)(=O)=O)ccc21
23%,O=C(CNC(=O)c1ccco1)N/N=C/c1cccs1
-3%,COC(CNC(=O)c1ccc2c(c1)nc(C)n2-c1cccc(F)c1)OC
-18%,O=C(O)/C=C/C(=O)NCCC1=CCCCC1
-1%,CCc1nn(CC(=O)NCCCN(C)C2CCCCC2)c(=O)c2cc3occc3n12
-7%,Cc1cccc(CN2CCC(CNC(=O)C3CCCN(S(=O)(=O)c4cnc[nH]4)C3)CC2)c1 (stereo not drawn)
15%,CCOc1cc2[nH]c(=S)n(CCOC)c(=O)c2cc1OCC
7%,CCN1CCCC1CNC(=O)CSCc1nc(-c2ccccc2C)oc1C (stereo not drawn)
-4%,CCC(C)c1ccc(NC(=S)N2CCN(c3ccccn3)CC2)cc1 (stereo not drawn)
-5%,COc1cccc(C(=O)Nc2nc3ccccc3[nH]2)c1
-6%,COc1ccc(CCNC(=O)CCCCn2c(=O)c3ccccc3n(Cc3ccccc3)c2=O)cc1OC
-2%,O=C(CSc1nnc(-c2ccccc2NC(=O)c2ccccc2)o1)OC1CCCCC1
-14%,CCOC(=O)c1cnn(-c2ccc(C)cc2)c1N
-1%,COc1ccc(-c2cc(C(=O)Nc3cc(OC)c(OC)c(OC)c3)no2)cc1OC
4%,O=C(OCC(=O)N1CCOCC1)c1cccc(F)c1
10%,Cc1cc(F)ccc1S(=O)(=O)N1CCC2(CC1)OCCN2S(=O)(=O)c1cccs1
2%,CCCn1c(N)c(C(=O)CSc2nnc(C)n2Cc2ccccc2)c(=O)n(C)c1=O
7%,COc1ccc(OCC(=O)c2c(O)c3ccccc3oc2=O)cc1
-1%,COCOc1ccc(/C=C/C(=O)c2c(OCOC)cc(OCOC)c(CC=C(C)C)c2O)cc1OCOC
-13%,COc1ccc(S(=O)(=O)N2CCCCC2)cc1NS(=O)(=O)c1ccc(CNC(C)=O)cc1
-5%,O=C(O)CC(NC(=O)C(c1ccccc1)c1ccccc1)c1ccc(F)cc1 (stereo not drawn)
4%,O=C(Nc1ccc(Cl)c(Cl)c1)C1=Cc2ccccc2OC1
11%,CCOC(=O)C1CCCN(C(=O)Cn2ncc3c(C)n(Cc4ccc(Cl)cc4)c(C)c3c2=O)C1 (stereo not drawn)
10%,CC(=O)c1ccc(NC(=O)CCc2ccc(C)o2)cc1
4%,CCCCc1ccc(NC(=O)CN2C(=O)NC(Cc3ccccc3)C2=O)cc1 (stereo not drawn)
-6%,Cc1ccc(C(=O)N/N=C/c2ccoc2)cc1C
-2%,CCOC(=O)C1CCN(C(=O)CSC2=NCCS2)CC1
2%,COc1ccc2c(c1)NC(c1ccc(F)cc1)=NC(c1ccc(F)cc1)=N2
-13%,Cc1cccc(-n2nc3c(c2NC(=O)c2ccco2)CS(=O)(=O)C3)c1C
12%,CC(=O)c1ccc(NC(=O)Nc2ccc(Cl)cc2)cc1
3%,Cc1cc(N/N=C/c2ccc(O)cc2O)nc(N2CCOCC2)n1
?,Nc1ccc(CNc2ncn[nH]2)cc1
-19%,COc1ccc(NC(=S)NC(=NS(=O)(=O)c2ccc(Cl)cc2)c2ccccc2)cc1
-28%,COc1ccc(/C=C/C(=O)c2ccc3ccccc3c2O)cc1CN1CCOCC1
-10%,COc1ccccc1NC(=O)CSc1ncn(-c2ccccc2)n1
5%,COc1ccc(-c2noc(CCC(=O)NC3CCCCC3)n2)cc1OC
?,O=c1cc(Br)c(O)c(Br)cc1Br
11%,CCCOc1ccc(-c2nc3c(c(=O)[nH]c(=O)n3Cc3ccccc3)n2CCO)cc1OCC
40µM*,O=C(O)CN1C(=O)/C(=C\c2cc(Br)ccc2OCc2ccc(Cl)cc2)SC1=S
19%,CCCOc1ccc(C(=O)OCCN2CCCCC2)c(O)c1
?,CCNC(=O)c1cnn(-c2ccccc2)c1-c1ccccc1
2%,O=C1COc2ccc(C(=O)c3ccccc3C(=O)O)cc2N1
4%,O=S(=O)(NCCc1csc2nc(-c3ccccc3)nn12)c1ccc(Cl)s1
-3%,COc1ccc(OC(C)C(=O)NCCc2nc3ccccc3[nH]2)cc1 (stereo not drawn)
15%,Cc1ccc(CNC(=O)c2cc(S(=O)(=O)N3CCCCCC3)cn2C)cc1
5%,Cc1cccc(C)c1OC(=O)CN(c1ccc(Cl)cc1)S(C)(=O)=O
0%,CN(C)c1c2ccccc2nc2c(F)c(F)c(F)c(F)c12
0%,COc1cc(NC(=O)C2CCC(CNS(=O)(=O)c3csc(C(N)=O)c3)CC2)cc(OC)c1 (stereo not drawn)
6%,CCSc1nc(=S)n(Cc2ccccc2)c(C)c1C(C)=O
-21%,COc1ccc(C(=O)N(C)Cc2ccc(C)o2)cc1OC1CCN(C(C)=O)CC1
0%,CCN(CC(=O)Nc1c(F)cccc1F)C(=O)CC1CCCCC1
